Assay outcomes: PubChem BioAssay, ICCB-Longwood Screening Facility, Harvard Medical School
Ecoli growth: E. coli growth inhibition, primary screen, OD600. 0.21% of 330,000 active. OD600 absorbance (test concentration not listed). Escherichia coli growth, 23 h; active compounds read low;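 active = OD600 absorbance below the run mean of sample wells minus 3.6 SD, in any replicate, cut at about 0.56 in these data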;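 note: stock transfer was 300 nL into about 60 µL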
Numbers without * were called inactive; & = joins results of further samples. An excerpt; rates above refer to the full screens.

SMILES	Ecoli growth
CC[C@@]12C(=O)N(c3cccc(Cl)c3)C(=O)N1C(c1ccc(Br)cc1)C1C(=O)N(C(C)(C)C)C(=O)C12 (stereo partly specified)	0.689
CCOC(=O)c1[nH]cnc1C(=O)NC(C)c1ccccc1 (stereo unspecified)	0.616
Cc1ccc(S(=O)(=O)N2C(c3cccc(Cl)c3)CC=C(C(=O)O)C2c2ccc(Cl)cc2)cc1 (stereo unspecified)	0.67
O=C(NCc1nc2ccccc2[nH]1)C1=CC(c2ccc3c(c2)OCO3)CC(OCc2ccc(CO)cc2)O1 (stereo unspecified)	0.72
Cn1cccc1-c1cc(C(=O)NN=CC=Cc2ccccc2)[nH]n1	0.645
CC1CC[C@@]2(O1)OC(CCO)CC(O)C2O (stereo partly specified)	0.652&0.669&0.708&0.713&0.7&0.689&0.672&0.671
CCCC(C#CCCN1C(=O)c2ccccc2C1=O)=C1c2ccccc2C(=O)N1c1ccccc1	0.723
COc1cc(NC=C2CC(=O)NC(C)=C2C#N)cc(OC)c1OC	0.763
C#CCOCCOCCOCCNc1nc(N2CCOCC2)nc(N2CCN(C(=O)CCCCCCCCCCNC(=O)C(CCSC)n3cc(CCO)nn3)CC2)n1 (stereo unspecified)	0.717
O=C1C=C(c2ccc3c(c2)oc2ccccc23)CC(c2ccc3c(c2)OCO3)C1 (stereo unspecified)	0.631
O=C(C=CNNC(=O)c1ccccc1)c1ccc(Br)cc1	0.66
C=CCCC(Cc1ccc(F)cc1)C(=O)OCCNC(=O)C(CC=C)CC(=O)N(CCO)Cc1ccccc1 (stereo unspecified)	0.667
O=C1CC(c2ccc(O)cc2)Oc2cc(OC3OC(CO)C(O)C(O)C3O)cc(OC3OC(CO)C(O)C(O)C3O)c21 (stereo unspecified)	0.634
COC(=O)CC1c2cc(C(F)(F)F)ccc2S(=O)(=O)N1Cc1ccccc1OC (stereo unspecified)	0.66
CCC(C)C1CN=C(N)N1CCc1cc(C(F)(F)F)cc(C(F)(F)F)c1 (stereo unspecified)	0.642
CC(=O)OC1CCC2C3CCc4cc(O)ccc4C3CC[C@]12C (stereo partly specified)	0.752
Cc1noc(C)c1NC(=O)Nc1ccc2c(c1)C(=O)N(C(C)CO)CC(C)C(CN(C)C(=O)Nc1c(C)noc1C)O2 (stereo unspecified)	0.68
COc1ccc(C2C=CCN(S(=O)(=O)c3ccc4ccccc4c3)C(C)C(=O)N2Cc2ccc(F)cc2)cc1 (stereo unspecified)	0.727
O=C1NCCOC(=O)C(Cc2ccc(F)cc2)CC=CCC1CC(=O)N(CCO)Cc1ccccc1 (stereo unspecified)	0.662&0.712
CC(C)CC(NC(=O)C(O)C(N)Cc1ccccc1)C(=O)O (stereo unspecified)	0.66
CCOC(=O)C(C)NS(=O)(=O)N(Cc1ccccc1)C(C(=O)OC)C(C)C (stereo unspecified)	0.664
CC(O)C1CNC(=O)C(=O)N1CCCCC1CCCCC1 (stereo unspecified)	0.714
COc1cc(CCCN2C(=S)NCC2CCCCN)cc(OC)c1OC (stereo unspecified)	0.68
CC1(C)OC2CC3C4CC(F)C5=CC(=O)C=C[C@]5(C)C4C(O)C[C@]3(C)[C@]2(C(=O)CO)O1 (stereo partly specified)	0.712
O=C(NC1CCC(=O)N(CCSc2ccc(Br)cc2)CC1)OCc1ccccc1 (stereo unspecified)	0.713

(continued)
SMILES	Ecoli growth
CCC(C)C1CNCCN1CCc1cccc2ccccc12 (stereo unspecified)	0.669
N#CC(=Cc1cn(CC(=O)O)c2ccccc12)C(=O)NCc1ccccc1	0.709
[N-]=[N+]=NC(CCN1CCC(NC(=O)OCc2ccccc2)CCC1=O)c1ccccc1 (stereo unspecified)	0.688
CN(C)C1=NCC(Cc2ccccc2)N1CCCC1CCCC1 (stereo unspecified)	0.639
C#CCNC(=O)C1=CC(c2ccc3c(c2)OCO3)CC(OCc2ccc(CO)cc2)O1 (stereo unspecified)	0.693&0.685
Cc1cccc(C=Cc2nc3ccccc3c(=O)n2Cc2ccccc2)c1	0.763
CC#CCN1c2ccccc2[C@]23CC(C(=O)OC)N(C(=O)OCC)C2=NC(C(=O)OC)=C(C(=O)OC)C13 (stereo partly specified)	0.684
C#CCCOC(=O)N1C2=NC(C(=O)OC)=C(C(=O)OC)C3N(C)c4ccc(OC)cc4[C@]23CC1C(=O)OC (stereo partly specified)	0.711
COc1ccc(-c2ccc(OC)c(C3C4C=CCC[C@@]4(C)C(=O)N3Cc3ccccc3)c2)cc1OC (stereo partly specified)	0.748
COc1ccc(CC2CN3C(=NCC3Cc3ccc(O)cc3)N2CCNC(=O)c2ccc(C)c(Br)c2)cc1 (stereo unspecified)	0.665
NC(Cc1cc(I)c(O)c(I)c1)C(=O)O (stereo unspecified)	0.677
CC(=O)OCC1OC(ON=CC(C)C(OCc2ccccc2)C(C)C)C(OC(C)=O)C(OC(C)=O)C1OC(C)=O (stereo unspecified)	0.633
CCC1(CC)C(=O)C2=C3C(CC(C(=O)OC)=CC(C(=O)OC)C31)C1C(=O)NC(=O)C1C2C (stereo unspecified)	0.717
CN1C(=O)C2C(C3CC3)N3C(=O)CN(CCO)C(=O)[C@@]3(Cc3ccccc3)C2C1=O (stereo partly specified)	0.693
CC(NC(=O)c1nc[nH]c1C(=O)OCc1ccccc1)c1ccccc1 (stereo unspecified)	0.694
COC(=O)C1CCCN1C(=O)C(NC(=O)OC(C)(C)C)C(C)C (stereo unspecified)	0.667
CCOC1OC(C(=O)O)=CC(c2ccc(Br)cc2)C1CCCO (stereo unspecified)	0.711
CC(C)(C)CN1C(N)=NCC1c1ccccc1 (stereo unspecified)	0.688
CC(N)=C(C#N)C(=O)CSc1nc2ccccc2c(=O)n1CCCO	0.698
O=C1C=C(c2cc3ccccc3s2)CC(c2ccc3c(c2)OCO3)C1 (stereo unspecified)	0.68
C=CCCC(Cc1ccc(F)cc1)C(=O)OCC(C)NC(=O)C(CC=C)CC(=O)NC(CO)Cc1ccccc1 (stereo unspecified)	0.711&0.729&0.73&0.686
C#CCOCCOCCOCCNc1nc(N2CCN(C(=O)C(Cc3ccc(O)cc3)n3cc(CCO)nn3)CC2)nc(N2CCN(C(=O)C(Cc3ccc(O)cc3)n3cc(CCO)nn3)CC2)n1 (stereo unspecified)	0.717
CN(C)C(=O)C(=Cc1cccc(Oc2ccccc2)c1)NC(=O)c1ccccc1	0.705
CC(C)CC(NC(=O)c1nc[nH]c1C(=O)NCC(=O)OC(C)(C)C)C(=O)OC(C)(C)C (stereo unspecified)	0.701
Cc1noc(C)c1S(=O)(=O)N(C)CC1Oc2c(NC(=O)NC(C)C)cccc2C(=O)N(C(C)CO)CC1C (stereo unspecified)	0.706

Later entries.
SMILES	Ecoli growth
CC1CN(C(C)CO)C(=O)c2cccc(NC(=O)Cc3ccccc3)c2OC1CN(C)Cc1ccncc1 (stereo unspecified)	0.678
CCCCC1CNC(=O)C(=O)N1CCc1cc(C(F)(F)F)cc(C(F)(F)F)c1 (stereo unspecified)	0.703
COCCCN1C(=O)C(=O)C(=C(O)c2ccc(OC(C)C)c(C)c2)C1c1ccncc1 (stereo unspecified)	0.687
CCC1=C(OC(=O)N(CC)CC)N2C(=O)OC(=NCC(=O)OC)[C@]2(C)C2C1=CCC1C(=O)N(CC(=O)OC)C(=O)C12 (stereo partly specified)	0.676
C#CCOCCOCCOCCNc1nc(N2CCN(C(=O)C(CCC(=O)O)n3cc(C(N)CCCCN)nn3)CC2)nc(N2CCN(C(=O)C(CC(N)=O)n3cc(C(N)C(C)CC)nn3)CC2)n1 (stereo unspecified)	0.65
O=C(CC1CC=CCC(NC(=O)OCC2c3ccccc3-c3ccccc32)C(=O)OC(c2ccccc2)CNC1=O)NCCO (stereo unspecified)	0.708
COc1cccc(N2C(CC(C)=O)c3cc(C(F)(F)F)ccc3S2(=O)=O)c1 (stereo unspecified)	0.668
COc1ccc(C(NC(=O)OC(C)(C)C)C(=O)OC(C)(C)C)cc1 (stereo unspecified)	0.738&0.716
CC1CN(C(C)CO)C(=O)c2cccc(NC(=O)C3CC3)c2OC1CN(C)Cc1ccccc1 (stereo unspecified)	0.658
O=C(CC1CC=CCCC(Cc2ccc(F)cc2)C(=O)OCC(Cc2c[nH]c3ccccc23)NC1=O)NCCO (stereo unspecified)	0.656
CCN1C(=O)C2C(c3ccc(-c4cc(C(C)=O)cs4)cc3)N[C@@](Cc3ccccc3)(C(=O)OC)C2C1=O (stereo partly specified)	0.646
COc1cc(NC(=O)COC(=O)C=Cc2c(C)nn(-c3ccc(F)cc3)c2Cl)cc(OC)c1	0.733
C#CCOCCOCCOCCNc1nc(N2CCN(C(=O)CCCCCCCCCCNC(=O)C(CO)n3cc(CCCCCN)nn3)CC2)nc(N2CCN(C(=O)CCCCCCCCCCNC(=O)C(CCC(=O)O)n3cc(CCCCCN)nn3)CC2)n1 (stereo unspecified)	0.632
C[C@]12CCC3c4ccc(OC5OC(C(=O)O)C(O)C(O)C5O)cc4CCC3C1CC(O)C2O (stereo partly specified)	0.702
CC(C(=O)Nc1ccc2ccccc2c1)C1C[C@]1(C)C(NS(=O)(=O)c1ccccc1)c1ccccc1 (stereo partly specified)	0.719
CCN1C(=NCc2ccco2)NC(c2cccc(F)c2)C(C(=O)OC)=C1C (stereo unspecified)	0.688
CCCN1CCC(=O)N(C(CSc2ccccc2)CC(C)C)CC1 (stereo unspecified)	0.705
Cc1cccc(C=CC(=O)c2ccc([N+](=O)[O-])o2)c1	0.526
CN1C(=O)C2C(C=Cc3ccccc3)N3C(=O)CN(Cc4ccccn4)C(=O)[C@@]3(C)C2C1=O (stereo partly specified)	0.683
CC(C)(C)OC(=O)CC1CC=CCC(CC(=O)NC(CO)Cc2ccccc2)C(=O)NCCOC1=O (stereo unspecified)	0.645&0.708
CC1CN(C(C)CO)C(=O)c2cc(NC(=O)Nc3ccc(C(F)(F)F)cc3)ccc2OC1CN(C)C(=O)Nc1ccccc1 (stereo unspecified)	0.715
CCOC(=O)C1C2COc3ccc(C)cc3C2N2C(=O)c3ccc(F)cc3NC(=O)[C@@]12C (stereo partly specified)	0.695
CCN1C(=O)C2C(c3ccc(-c4ccc(Cl)c(Cl)c4)cc3)N3CCCC[C@@]3(C(=O)OC)C2C1=O (stereo partly specified)	0.614&0.727
CC1CN(C(C)CO)C(=O)c2cccc(NC(=O)Nc3ccc(C(F)(F)F)cc3)c2OC1CN(C)S(=O)(=O)c1cn(C)cn1 (stereo unspecified)	0.687
CC(C)(C)OC(=O)NC(COCc1ccccc1)C(=O)NC(CO)C(O)C1CC1C(=O)NC1CC1 (stereo unspecified)	0.694

Other entries.
SMILES	Ecoli growth
CC(NC1CCCCC1)=C(C#N)C(=O)NCCN1CCOCC1	0.72
COC(=O)C1=C(C(=O)OC)C2Nc3ccccc3[C@@]23CC(C(=O)OC)N(C(=O)c2ccc(Br)cc2)C3=N1 (stereo partly specified)	0.672
O=S(=O)(C=Cc1ccccc1)Nc1cccc(S(=O)(=O)NC2=NCCC2)c1	0.696
CC(=O)[C@@]1(O)CCC2C3CC(C)C4=CC(=O)C=C[C@]4(C)[C@@]3(F)C(O)C[C@@]21C (stereo partly specified)	0.675
C[C@@]12CCC=CC1C(c1ccc3ccccc3c1)N(Cc1ccccc1)C2=O (stereo partly specified)	0.657
CC1CN(C(C)CO)C(=O)c2cc(NC(=O)Cn3cnnn3)ccc2OC1CN(C)Cc1ccncc1 (stereo unspecified)	0.667
CC(=O)OC1CC2C(C)(C)C(=O)C=C[C@]2(C)C2CC[C@@]3(C)C(c4ccoc4)OC(=O)C4O[C@]43[C@]12C (stereo partly specified)	0.646
CCCCN1C(=N)N(C(C)CN2CCCC2CN2C(N)=NCC2CC(C)C)CC1C(C)CC (stereo unspecified)	0.696
COc1ccc(C=CC(=O)Oc2cccc(C=NNC(=O)COc3c(C)cccc3C)c2)cc1	0.726
CCCC(CNC(CNC)C(C)O)NCCc1ccc(OC)cc1 (stereo unspecified)	0.679
O=C(NC=NOCc1cccc(C(F)(F)F)c1)N1OCC2COc3ccc4ccccc4c3C21 (stereo unspecified)	0.727
COC(=O)C1=C(C(=O)OC)C2N(C)c3ccc(OC)cc3[C@@]23CC(C(=O)OC)N(S(=O)(=O)c2ccc([N+](=O)[O-])cc2)C3=N1 (stereo partly specified)	0.683
CCCCC1CC1C(NC(=O)c1ccco1)c1ccc(C(=O)OC)cc1 (stereo unspecified)	0.702
NCCCCC(C(=O)N1CCNCC1)n1cc(C(N)CC(N)=O)nn1 (stereo unspecified)	0.729
CC(C(=O)CC(=O)OC(C)(C)C)C(O)c1ccc(C(F)(F)F)cc1 (stereo unspecified)	0.714
O=C(C(=Cc1ccccc1)c1ccccc1)N1CCCCC1	0.699
CC(C)(Cc1ccccc1)[N+]([O-])=Cc1ccc(C(F)(F)F)cc1	0.679
COc1cc(C=CC(=O)Nc2nc3ccc(S(=O)(=O)N(C)C)cc3s2)cc(OC)c1OC	0.704
COc1cc(C=C2NC(=O)NC2=O)cc(Br)c1OCc1ccccc1	0.678
